Calb FLC = C. albicans growth inhibition with fluconazole, primary screen, CaCi-2 strain, Alamar Blue fluorescence; C. albicans CaCi-2 (fluconazole-resistant clinical isolate) + fluconazole, 48 h; growth inhibition, % (test concentration not listed); 300,000 compounds, 0.57% hits;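 active = most replicates above 75%; inconclusive = exactly half above 75%; inactive = most below 75%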;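 also: all wells also contain fluconazole at 8 µg/ml as a sub-toxic cotreatment; 0% = median of DMSO wells and 100% = median of geldanamycin control wells; wells of about 8 µL received 7.5 nL stock; the first replicate is given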
Beta apoptosis = inhibitors of cytokine-induced beta cell apoptosis, primary screen, luminescence; INS-1E cytokine-induced death, ATP luminescence, 48 h; percent of positive-control rescue, neutral wells zero; protection from apoptosis, % (test concentration not listed); AID 435005, 2010; 300,000 compounds, 0.8% hits;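 active = all replicates at 75% or more, or half of them and the mean; inconclusive = half reach 75% but not the mean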;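 also: 0% = cytokine-treated negative control wells and 100% = positive control rescue; higher means more ATP so stronger rescue from cytokine killing; wells of about 40 µL received 100 nL stock; the first replicate is given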
Ecoli rRNA inh = reduced GFP signal of wild-type E. coli, primary screen, bacterial rRNA inhibitor project, GFP/RFP fluorescence, OD600, single point | GFP signal change (wild-type ribosome), % (concentration not given with the values) | AID 720706, 2013 | 350,000 compounds, 1.6% hits | E. coli WT GFP vs humanized-ribosome RFP mutants, 24 h; hits give low values; DMSO median 0, no signal -100;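 active = significant combined selectivity score with lowered wild-type GFP, culture density cut under 30%, mutant RFP and density less affected; inactive = any of these conditions unmet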; also: one replicate is shown; some compounds called inactive have numbers as strong as hits
B2AR ag = beta2AR agonists driving receptor internalization, primary screen, cell-based, FAP fluorogen, flow cytometry; response, % (no concentration beside the values); 340,000 compounds, 0.43% hits; Beta-2 adrenergic receptor (Homo sapiens), P07550; Am2.2-beta2AR cells; reference of the scale not given here; AID 504454, 2011;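 active = response above a set limit, near 3 SD of response in nonfluorescent compounds, cut at about 42% in these data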;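 also: stock transfer was 100 nL into about 11 µL; a reference agonist was the positive control; negative values mostly stem from fluorescent compounds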
Target sequence (P07550 whole entry, looked up): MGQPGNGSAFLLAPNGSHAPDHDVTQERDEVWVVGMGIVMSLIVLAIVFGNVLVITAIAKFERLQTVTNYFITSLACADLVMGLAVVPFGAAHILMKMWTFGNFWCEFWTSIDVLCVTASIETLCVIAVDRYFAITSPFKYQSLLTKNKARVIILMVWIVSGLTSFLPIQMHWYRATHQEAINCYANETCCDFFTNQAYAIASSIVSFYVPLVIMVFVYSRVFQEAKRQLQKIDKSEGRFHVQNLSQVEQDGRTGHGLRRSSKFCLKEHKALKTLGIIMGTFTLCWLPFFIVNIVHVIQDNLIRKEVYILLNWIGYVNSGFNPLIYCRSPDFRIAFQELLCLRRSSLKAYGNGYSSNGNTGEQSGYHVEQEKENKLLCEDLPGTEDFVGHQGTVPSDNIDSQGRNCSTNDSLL
ALR H2O2 inh = inhibitors of human ALR sulfhydryl oxidase, primary screen, biochemical, H2O2 detection, HRP-luminol luminescence, single point | purified ALR, DTT oxidation | inhibition, % (no concentration beside the values) | 290,000 compounds, 3.8% hits;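 active = mean and each replicate at 75% or more; inconclusive = only one of the two met; inactive = neither met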;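 also: stock transfer was 7.5 nL into about 7.5 µL; 0% = neutral wells and 100% = wells with inactivated enzyme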
Target sequence (P55789 whole entry, looked up): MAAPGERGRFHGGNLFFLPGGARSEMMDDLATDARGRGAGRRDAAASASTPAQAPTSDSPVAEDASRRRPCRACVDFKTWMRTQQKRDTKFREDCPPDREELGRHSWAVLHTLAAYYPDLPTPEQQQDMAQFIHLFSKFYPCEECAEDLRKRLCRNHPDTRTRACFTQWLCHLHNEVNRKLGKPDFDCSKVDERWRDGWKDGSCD
LANA-H2A inh = blockers of LANA interaction with H2A/H2B – biochemical, FP readout, HTS, primary screen; 320,000 compounds, 0.6% hits; cell-free LANA-H2A/H2B peptide, fluorescence polarization; inhibition, % (test concentration not listed); Protein LANA1 (Human herpesvirus 8 type P (isolate GK18)), Q9QR71; in the data active = inhibition mostly above about 10%, no sharp cut-off; inactive = mostly below about 6.7%;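 also: stock transfer was 7.5 nL into about 10 µL; 0% = median of vehicle wells and 100% = median of positive control wells; one replicate is shown; the record names a cut of 25% in any replicate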
Bfl-1 A1 inh = caspase 3/7 activation in MEF A1-2A-BIM cells, primary screen, A1 inhibitor project, cell-based, luminescence, HTS; Caspase-Glo 3/7 luminescence, 3 h; percent of clofoctol response, vehicle zero; caspase activation, % (concentration not given with the values); 330,000 compounds, 0.066% hits;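 active = over half of replicate activation scores above 10%, or exactly half above 10 with the replicate mean above 10; inconclusive = replicate mean below 10 yet half the replicates above 10; inactive = over half of replicates below 10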;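 also: wells of about 30 µL received 50 nL stock; many hits fall short of the cut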
T cruzi inh = inhibitors of intracellular T. cruzi growth, primary screen, luminescence, NIH3T3 host cells; T. cruzi beta-gal in NIH3T3, 90 h; inhibition, % (concentration not given with the values); 300,000 compounds, 1.4% hits;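 active = mean inhibition across valid replicates above about 55%, limit read from the data; inconclusive = mean below that limit but half or more replicates reach it; inactive = mean below it, under half of replicates reach it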;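 also: signal also drops with host cell toxicity which is not excluded here; 0% = plate median of DMSO wells and 100% = zero luminescence signal; higher percent means less beta-gal luminescence so fewer parasites; stock transfer was 50 nL into about 50 µL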
Ecoli rRNA inh OD600 = further read-out of Ecoli rRNA inh, marked with its call; OD600 change, %; measured here: OD600 growth;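 optical density of the mix in the first replicate; 0 = DMSO median and -100 = no signal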
Ecoli rRNA inh RFP = recorded beside Ecoli rRNA inh, whose call it bears; RFP signal change, %; measured here: RFP humanized mutant strains;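 first replicate; 0 = DMSO median and -100 = no signal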
Starred values were filed as active, the others as inactive; u = inconclusive; x = no result given. Only part of the results is shown, so the mix of outcomes need not match the whole.

Structure | Ecoli rRNA inh | Ecoli rRNA inh RFP | Bfl-1 A1 inh | ALR H2O2 inh | Calb FLC | B2AR ag | Ecoli rRNA inh OD600 | LANA-H2A inh | Beta apoptosis | T cruzi inh
COc1cc(-c2[nH]ncc2CN2CCSCC2)cc(OC)c1OC | 7 | 7.1 | 0.2 | x | -2 | -6 | 12 | -2.5 | -5 | -1
Cc1cnc(C(=O)OC(C)C(=O)NC2CCCc3ccccc32)cn1 (centres undefined) | 11 | 1.5 | 0.3 | -3 | 4 | -1 | 8 | 3.0 | 0 | 1
CCOC(=O)NCc1ccc(Cl)c(Cl)c1 | x | x | -0.4 | -2 | -20 | -7 | x | -5.0 | -2 | 1
CN1C2C=C(N(CCc3c[nH]c4ccccc34)C(=O)c3ccc(Cl)cc3)CC1CC2 (centres undefined) | x | x | -0.3 | -18 | -7 | 17 | x | 0.3 | 0 | -10
Cc1cc(SCc2ccccc2F)nc(=O)[nH]1 | 16 | 7.5 | -0.6 | -3 | -4 | 3 | 21 | 0.0 | 0 | -4
Cc1cc(C(=O)Nc2nc3c(s2)CCCC3)no1 | x | x | -5.8 | 96* | 11 | -7 | x | -4.7 | 3 | -3
O=C(COC(=O)C1=Cc2ccccc2OC1)NCc1ccccc1 | 5 | 0.0 | -0.5 | x | 6 | 5 | 6 | x | 3 | -6
CC1=C(C(=O)OCc2ccccc2)C(c2ccc(-c3ccccc3)cc2)NC(=O)N1CCCC(=O)O (centres undefined) | 5 | -10 | -1.0 | 29 | 19 | x | 4 | 3.3 | 2 | -3
CN(C)S(=O)(=O)c1ccc(C(=O)OCc2nnc(-c3ccccc3)o2)cc1 | -2 | -11 | -0.1 | 0 | -2 | 1 | -5 | -4.5 | -2 | 3
COc1ccc(/C=N/Nc2ccccn2)cc1OC | 8 | -1.6 | -0.9 | 99* | -6 | -1 | 12 | 1.3 | -16 | 14
CC(OC(=O)C1CCCCC1)C(=O)Nc1ccc(S(N)(=O)=O)cc1 (centres undefined) | 3 | -1.6 | 1.3 | x | x | 1 | 7 | 0.5 | -5 | x
Cn1cnnc1SCc1ccc(C#N)cc1 | x | x | -0.4 | x | -4 | -4 | x | -3.1 | -1 | -8
Cc1nn2c(N3CCN(CCO)CC3)c3c(nc2c1-c1ccccc1)CCCC3 | -15 | -3.6 | -0.3 | x | 26 | -3 | -22 | -6.7 | -4 | x
Cc1ccc(SCC(=O)OCC(=O)NCc2cccs2)cc1C | -3 | -2.4 | 0.1 | -14 | -6 | 7 | -3 | 3.8 | -7 | -12
C=CCn1c(C)nnc1SCC(=O)NC1CCCCC1 | 8 | -1.2 | 0.5 | -2 | 1 | 4 | 6 | 1.9 | -3 | -8
CC(=O)Oc1ccc(/C=N\NC(=O)c2cc3c(ccc4ccccc43)o2)cc1 | x | x | 0.6 | -7 | 39 | 8 | x | -2.5 | -1 | 14
O=S(=O)(c1ccccc1)N1CCN(C(=S)NCCCN2CCOCC2)CC1 | 18 | 0.1 | 0.3 | -5 | -5 | 4 | 14 | -0.4 | -2 | -4
C/C(CCN1CCc2nc(-c3ccccc3)c(-c3ccccc3)cc2C1)=N\OC[C@@H](C)[C@H](OCc1ccccc1)C(C)C | x | x | -0.3 | 2 | -22 | x | x | 2.2 | 17 | 19
CCOC(=O)Nc1ccc(S(=O)(=O)N(C)C(C)C)cc1 | x | x | -0.3 | -13 | 0 | 0 | x | 1.8 | -5 | 2
CCCN(CC(=O)Nc1ccccc1C)C(=O)c1ccc(C(=O)c2ccccc2)cc1 | -9 | 3.2 | -0.5 | 0 | 6 | -7 | -21 | -1.2 | 3 | -1
COc1ccc(-c2cnc(NCc3cc4c(cc3[N+](=O)[O-])OCO4)n2C)cc1 | x | x | -0.7 | 28 | 8 | 5 | x | -9.7 | 5 | 42
CCN(CC)C(=O)c1sc(NC(=O)c2cccs2)c(C#N)c1C | 4 | 2.6 | 0.6 | 2 | 43 | -8 | -5 | 0.6 | x | -5
Cc1nc(-c2ccccc2)[nH]c(=O)c1Oc1ccc(Cl)cc1Cl | x | x | 0.5 | -21 | -1 | 5 | x | 7.0 | 1 | x
Cn1cccc1CC(=O)NNC(=S)Nc1ccccc1Cl | 6 | 0.9 | 0.1 | 64 | 0 | 4 | 17 | 2.2 | 3 | 0
O=C(COC(=O)CCc1nc2ccccc2c(=O)[nH]1)Nc1ccc(OC(F)(F)F)cc1 | 4 | 0.5 | 0.2 | x | x | 3 | 15 | -3.6 | 1 | x
CCOC(=O)c1c(N)nn(C(=O)c2ccccc2F)c1-c1ccc(OC)cc1 | 2 | -1.3 | -0.2 | 16 | -2 | -1 | 15 | -4.9 | -1 | -6
CCCN1C(=O)SC(CC(=O)Nc2ccc(C)cc2)C1=O (centres undefined) | x | x | -0.3 | -8 | -5 | 5 | x | 1.2 | -10 | 3
Cc1ccc(C(=O)Nc2ccccc2C(=O)NC2CCCCC2)cc1S(=O)(=O)N1CCOCC1 | 17 | -2.7 | -0.8 | -7 | 23 | -3 | 22 | -0.7 | 7 | 34
CC(C)(C)N(Cc1ccccc1)C(=O)COC(=O)C1CCN(c2ccc(C(F)(F)F)cn2)CC1 | 4 | 0.3 | -0.7 | -3 | x | 2 | -1 | x | -1 | x
O=C(Nc1c2c(nn1-c1ccc(F)cc1)CS(=O)C2)C12CC3CC(CC(C3)C1)C2 (centres undefined) | x | x | -0.1 | -3 | 1 | -1 | x | 2.0 | -1 | 1
CC(=O)c1c(C)[nH]c(C(=O)CN2CCN(S(=O)(=O)c3ccccc3F)CC2)c1C | -8 | 3.8 | 1.0 | -5 | x | 11 | -13 | 4.7 | 7 | x
COc1ccc(C2=CN3CCCCC3CC2=O)cc1OC (centres undefined) | 0 | 0.2 | -0.8 | 58 | x | -2 | 2 | -6.5 | -2 | x
COc1cc(/C=C/CO)cc(OC)c1O[C@@H]1O[C@H](CO)[C@@H](O)[C@H](O)[C@H]1O | 22 | 3.2 | -0.7 | -8 | 6 | -2 | 15 | 4.0 | -3 | -12
c1ccc(-c2oc3ncnc(NCCCN4CCOCC4)c3c2-c2ccccc2)cc1 | x | x | 0.2 | -11 | -4 | 3 | x | -5.0 | -5 | 20
O=C1N/C(=N\S(=O)(=O)c2ccccc2)S/C1=C\c1cc([N+](=O)[O-])ccc1O | -4 | 1.1 | 0.7 | 22 | 6 | 7 | 2 | 1.6 | 4 | 4
CC(C)(C)C(=O)Nc1sc2c(c1C#N)CCC2 | 11 | -1.8 | -0.9 | 0 | -5 | -2 | 13 | -1.6 | 4 | 0
Cc1ccc(NC(=O)c2cc(-c3ccc(F)cc3)on2)cc1C | 12 | -0.6 | -0.2 | x | 3 | 1 | 9 | 5.5 | 8 | 1
O=C(c1cccc(C(=O)N2CCN(Cc3ccccc3)CC2)c1)N1CCN(Cc2ccccc2)CC1 | x | x | -0.2 | 3 | -10 | -6 | x | 1.9 | 2 | 16
O=c1cc(-c2ccccc2)n(S(=O)(=O)c2ccc3ccccc3c2)o1 | x | x | -1.5 | 5 | 39 | 4 | x | 4.0 | -1 | -26
Cc1[nH]c2ccccc2c1C(=O)CSC(=S)N1CCCCC1 | -22 | -11 | 0.7 | -36 | -8 | 0 | -31 | 4.0 | -2 | 24
Cc1ccccc1NC(=O)CN(c1ccc(F)cc1)S(C)(=O)=O | x | x | -1.3 | 0 | -9 | 6 | x | -2.7 | 2 | -4
Cc1ccc(S(=O)(=O)NCCC(=O)NC2CCCCC2C)cc1 (centres undefined) | 5 | 3.8 | -0.1 | -8 | x | -14 | 3 | -206 | 3 | x
CCCCC/S(CC1CC1(Cl)Cl)=N\S(=O)(=O)c1ccc(C)cc1 (centres undefined) | 10 | -1.2 | -0.4 | -8 | -17 | 10 | 1 | 1.7 | 2 | 9
CCC(=O)NC(Nc1ccccn1)(C(=O)OC)C(F)(F)F (centres undefined) | x | x | -0.7 | -4 | -11 | 5 | x | 2.9 | -3 | -4
Cc1ccc(-c2sc(C(=O)NN)c(C)c2C#N)cc1 | 31 | 1.4 | u | 43 | 7 | -6 | -8 | 1.3 | -1 | -2
C/C(=N\NC(=O)C(C)Sc1ccccc1)C(C)(C)C (centres undefined) | x | x | -1.3 | 2 | -7 | 1 | x | 2.4 | -17 | 4
CCS(=O)(=O)Nc1ccccc1C(N)=O | 19 | 4.9 | 0.7 | -7 | -13 | 6 | 19 | -1.4 | 0 | -8
C=C(C)C1Cc2c(C)nn(-c3nc(C)cc(C)n3)c2C1 (centres undefined) | x | x | -0.2 | -4 | 1 | -1 | x | -3.6 | 23 | -4
CC(=O)Nc1ccc(N=Cc2c(O)c3ccccc3oc2=O)cc1 | 17 | 4.6 | 1.1 | -1 | 0 | -4 | 13 | -1.9 | 0 | -12
CN1CC[n+]2c(CN3C(=O)c4ccccc4C3=O)csc21 | x | x | -0.6 | -7 | -1 | -3 | x | 3.7 | -6 | -3
COc1ccc(CCn2c(NN)nc3c2c(=O)[nH]c(=O)n3C)cc1 | 6 | -1.3 | -0.2 | -18 | 1 | -10 | 1 | 4.0 | 3 | -18
S=C(Nc1cc(Cl)cc(Cl)c1)N1CCCC1 | -4 | -2.2 | 0.3 | -7 | 17 | -4 | -2 | 2.7 | -6 | -14
O=C(NCc1nnnn1-c1ccc(F)c(F)c1)c1ccc(S(=O)(=O)N2CCOCC2)cc1 | 4 | -1.5 | -0.5 | 1 | -3 | 8 | -1 | 5.0 | 3 | 0
Cc1cc(C)c2nc(SCC(=O)Nc3cc(C)on3)c(C#N)cc2c1 | 6 | 2.1 | -0.8 | 15 | 2 | 7 | 11 | 1.7 | 6 | -19
Cc1ccc(S(=O)(=O)N(C)CCCC(=O)NC(C)(C)C)cc1 | 4 | 2.6 | 0.0 | -6 | -2 | -1 | 3 | 4.4 | -2 | -4
COc1cccc(-c2nc(-c3ccccn3)no2)c1OC | x | x | -3.0 | -1 | -8 | -2 | x | 0.5 | -11 | -8
CCN(CC(=O)NCc1ccc(Cl)cc1)C(=O)CSc1cc(C)ccc1C | -16 | -10 | -0.4 | -3 | 1 | -5 | -54 | -5.8 | -5 | -6
CC(=O)Nc1nc(C)c(-c2csc(Nc3cccc([N+](=O)[O-])c3)n2)s1 | x | x | -0.2 | 0 | -5 | 18 | x | 11 | 13 | 55*

Assay outcomes: PubChem BioAssay, several laboratories
